CDC25B CDK2 inh = human CDC25B-CDK2/CyclinA binding inhibition | P30305+P24941 | HTRF CDC25B-CDK2/CyclinA binding, anti-His/anti-Flag; hits give high values | z-score (test concentration not listed) | actives 0.72% (n = 94,000) | AID 1259370;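 also: score is relative to mean and SD of negative controls; strong numbers were not always called active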
HIV TAR-Tat = HIV-1 TAR-Tat binding disruption | HIV-1 TAR RNA, Tat peptide displacement FRET; hits give high values | z-score (test concentration not listed) | actives 0.6% (n = 100,000) | AID 1259389;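 also: score is relative to mean and SD of negative controls; some compounds called inactive have numbers as strong as hits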
An asterisk follows results filed as active; / = no result given; & = joins results of further samples.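 The calls were made as follows: active = z-score from 3 up in half or more of its runs; inactive = the rest.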

Preview:
SMILES | CDC25B CDK2 inh | HIV TAR-Tat
Cc1ccc(C(=O)C(C)n2nc(-c3ccccc3)ccc2=O)cc1C (configuration not stated) | 2.9 | 0.9
O=S(=O)(NCC(c1ccccc1)N1CCNCC1)c1ccc(Cl)cc1 (configuration not stated) | -0.32 | 0.95
COc1cc(O)cc(/C=C/c2ccccc2)c1 | / | -0.13
CC(C)Cn1cc(NC(=O)N(Cc2ccco2)CC2CCCO2)c2ccccc2c1=O (configuration not stated) | / | 0.72
Clc1nc(-c2ccccc2)c2cc(Br)ccc2n1 | -0.9 | /
CC1CCC(NC(=O)CCC(=O)N2CCOc3ccc(Cl)cc32)CC1 (configuration not stated) | -1.2 | 0.69
CCCNC(=O)CCCn1nc(C)n2c(cc3sccc32)c1=O | -1.5 | -0.43
Cc1c(C(=O)N2CCC(C(N)=O)CC2)sc2nc3n(c(=O)c12)CCCC3 | / | 1.3
Cc1nc2nc(C)c(NS(=O)(=O)c3cccs3)c(=O)n2[nH]1 | -3.5 | 0.24
CC1(C)CC(=O)C2=C(C1)c1c(ccc3ccccc13)NC2c1ccncc1 (configuration not stated) | -7.7 | /
CNNC(=S)NCCC1=CCCCC1 | 0.02 | /
Cc1nc2c(C)cccn2c(=O)c1NC(=O)CCCc1ccccc1 | / | -0.02
Cc1cc(-c2ccc(S(=O)(=O)NC3CCN(Cc4ccccc4)CC3)s2)on1 | / | 0.7
CC1(C)CC(=O)c2c([nH]c3[nH]c(=O)ncc23)C1 | -1.1 | /
COc1cc2[nH]c(=O)n(CCCCCC(=O)N3CCC(C(N)=O)CC3)c(=O)c2cc1OC | -2.6 | 2.8

The whole of this part, repeating the preview:
SMILES | CDC25B CDK2 inh | HIV TAR-Tat
Cc1ccc(C(=O)C(C)n2nc(-c3ccccc3)ccc2=O)cc1C (configuration not stated) | 2.9 | 0.9
O=S(=O)(NCC(c1ccccc1)N1CCNCC1)c1ccc(Cl)cc1 (configuration not stated) | -0.32 | 0.95
COc1cc(O)cc(/C=C/c2ccccc2)c1 | / | -0.13
CC(C)Cn1cc(NC(=O)N(Cc2ccco2)CC2CCCO2)c2ccccc2c1=O (configuration not stated) | / | 0.72
Clc1nc(-c2ccccc2)c2cc(Br)ccc2n1 | -0.9 | /
CC1CCC(NC(=O)CCC(=O)N2CCOc3ccc(Cl)cc32)CC1 (configuration not stated) | -1.2 | 0.69
CCCNC(=O)CCCn1nc(C)n2c(cc3sccc32)c1=O | -1.5 | -0.43
Cc1c(C(=O)N2CCC(C(N)=O)CC2)sc2nc3n(c(=O)c12)CCCC3 | / | 1.3
Cc1nc2nc(C)c(NS(=O)(=O)c3cccs3)c(=O)n2[nH]1 | -3.5 | 0.24
CC1(C)CC(=O)C2=C(C1)c1c(ccc3ccccc13)NC2c1ccncc1 (configuration not stated) | -7.7 | /
CNNC(=S)NCCC1=CCCCC1 | 0.02 | /
Cc1nc2c(C)cccn2c(=O)c1NC(=O)CCCc1ccccc1 | / | -0.02
Cc1cc(-c2ccc(S(=O)(=O)NC3CCN(Cc4ccccc4)CC3)s2)on1 | / | 0.7
CC1(C)CC(=O)c2c([nH]c3[nH]c(=O)ncc23)C1 | -1.1 | /
COc1cc2[nH]c(=O)n(CCCCCC(=O)N3CCC(C(N)=O)CC3)c(=O)c2cc1OC | -2.6 | 2.8
COc1cc(/C=C(\C#N)c2cccn2C)cc(OC)c1OC | -1.3 | /
CC1=C(C(=O)O)N2C(=O)C(NC(=O)c3ccccc3Cl)C2SC1 (configuration not stated) | -0.83 | 1.4
Cc1cc2nc(CSc3ccc(NC(=O)C4CC4)cc3)c(=O)[nH]c2cc1C | / | 1.6
Cc1cc(C)c(N(C)S(=O)(=O)c2c(C)noc2/C=C/N2CCOCC2)c(C)c1 | / | 0.12
CCOc1nsnc1N1CCOCC1 | -1.4 | /
COc1ccc(-c2nc(CSc3nc4ccccc4c(=O)[nH]3)c(C)o2)cc1 | / | 1.8
CNS(=O)(=O)c1cc(-c2nnc(OC)c3ccccc23)ccc1C | -1.2 | 0.09
CCn1c(=O)c(CCC(=O)O)c(C)c2c(C)nn(-c3cccc(F)c3)c21 | -1.4 | 1.8
COc1cccc(C2CC(c3ccc(Cl)cc3)Nc3nc(N)nn32)c1 (configuration not stated) | -0.1 | 0.63
COC(=O)C1=C(C)NC2=C(C(=O)CC(C)(C)C2)C1c1ccc(Cl)cc1 (configuration not stated) | -0.32 | 0
O=C(CCc1nnc2ccc(NCc3ccco3)nn12)NC1CCCCC1 | / | 2.5
O=C(CSCc1nc2cccnc2n1C1CCCCC1)NC1CCCC1 | / | -1.9
CCOc1ccc(-c2noc(-c3nnn(-c4ccc(Cl)cc4)c3N)n2)cc1 | / | -0.35
CC1=C(/C=C/C(C)=C/C=C/C(C)=C\C(=O)O)C(C)(C)CCC1 | -1.7 | 2.8
CCOCCCNC(=O)C1=C(C)C(=O)OC12CCN(S(=O)(=O)c1cccs1)CC2 | / | -0.63
COc1ccc(C2CC(=O)C3=C(C2)NC(=O)CC3c2cccc(O)c2)cc1OC (configuration not stated) | 1.2 | 1.6
CC1(C)Cc2nc3sc4c(=O)n(CCO)cnc4c3cc2CO1 | / | -0.17
Fc1ccc(N2CCN(c3nc(-c4ccccc4F)nc4ccccc34)CC2)cc1 | / | 2.5
Cc1ccc(S(=O)(=O)/N=C2\C=C(n3cnc4ccccc43)C(=O)c3ccccc32)cc1 | 17* | /
Cc1cc2c(cc1C)[n+](C)cn2CC(O)COCC1CC=CCC1 (configuration not stated) | -0.29 | 1.2
CSc1cccc(NS(=O)(=O)c2ccc(CCN3C(=O)c4cccnc4C3=O)cc2)c1 | / | 0.84
Cc1cc(NC(=O)CSc2nc(=O)cc(N)n2-c2ccccc2)no1 | 2 | /
COC1(OC)C/C=C\CC(OC)(OC)C/C=C\C1 | -1.5 | /
COc1cc(OC)c(NC2(c3ccccc3)C(=O)c3ccccc3C2=O)cc1Cl | / | 0.8
Cc1ccc(N2C(=O)C3N=NN(Cc4ccc(Cl)cc4)C3C2=O)cc1C (configuration not stated) | -0.17 | 0.03
CCCCNc1nc(Nc2ccc(C)cc2C)c2cnn(C)c2n1 | / | 2.1
O=C(O)Cn1cnc2onc(C(=O)O)c2c1=O | -0.99 | -0.58
CCOC(=O)C1CCN(S(=O)(=O)c2cc3[nH]c4c(c3cc2C)C(=O)CC(C)(C)C4)CC1 | / | 1.4
O=C1CC(c2ccc(Cl)cc2)c2cnn(-c3nc4ccccc4s3)c2N1 (configuration not stated) | / | 2.1
COc1ccc2sc(NC(=O)c3ccco3)nc2c1 | -2.3 | /
CN1CCN(CCNC(=O)c2cn[nH]c2C2CCNCC2)CC1 | / | -1.4
CCC(C(=O)N1CCN(c2cccc(Cl)c2)CC1)n1nc(C)c2sc3ccccc3c2c1=O (configuration not stated) | -3.7 | 2.6
O=C1c2cccnc2C(=O)N1CCc1ccc(S(=O)(=O)NCCc2ccc(Cl)cc2)cc1 | / | -0.46
Cn1cccc1Cc1nnc(SCC(=O)Nc2ccc3c(c2)OCCO3)n1C | -1.1 | 2.9
COc1ccc(Cc2nc3c4cnn(Cc5ccccc5)c4ncn3n2)cc1OC | 0.26 | 1
Following part
SMILES | CDC25B CDK2 inh | HIV TAR-Tat
Cc1cc(C)cc(N2CC(c3nc4ccccc4n3C)CC2=O)c1 (configuration not stated) | -1.5 | 2.1
COC(=O)c1ccc(Nc2ncccc2[N+](=O)[O-])cc1 | -0.73 | 1.8
Cc1ccnc(SCC(=O)N2CCN(c3cc(=O)n(C)c(=O)n3C)CC2)n1 | / | 0.66
COc1ccc2c(c1)CCC/C2=N\Nc1nc(C)cs1 | -0.53 | /
CC(C)NC(=O)N(Cc1cccnc1)Cc1ccc(Cl)cc1Cl | 0.59 | /
Nc1ncnc2nc(SCCOc3ccccc3F)[nH]c12 | -0.84 | 1.8
O=C(NC(=O)c1cccc(CS(=O)(=O)c2ccc(Cl)cc2)c1)Nc1ccccc1Cl | -1.1 | /
NC(=O)C1(N2CCCCC2)CCN(C(=O)Nc2ccccc2)CC1 | -1.3 | /
CCC(NC(=O)CCS(=O)(=O)c1ccc2c(c1)n(C)c(=O)c(=O)n2C)c1cccs1 (configuration not stated) | -0.57 | 0.72
CC(C)c1c(O)nc(SCC(=O)N2CCc3ccccc32)n(-c2ccccc2)c1=O | -0.36 | -0.33
O=C(NCc1ccc(F)cc1)c1ccc2snnc2c1 | -1.6 | 0.58
c1ccc(C2CC(c3cccs3)Nc3nnnn32)cc1 (configuration not stated) | 0.18 | /
CC1(C)CC(=O)C=C(NCCc2cnc[nH]2)C1 | -1.3 | 1.6
Cc1ccc(OCCSc2nnc(-c3cccs3)o2)cc1Cl | -2.2 | 0.51
Cn1cnnc1Sc1nc([N+](=O)[O-])nn1C | -1.1 | 1.1
CNc1ncnc2c1cnn2-c1cccc(Cl)c1 | / | 2.9
CCCn1c(=O)c2sccc2n2c(CCCC(=O)NC3CCC(C)CC3)nnc12 (configuration not stated) | / | -0.56
O=C(CSc1ccc(-c2cccnc2)nn1)Nc1ccc(F)c(F)c1 | / | 1.4
COCCN1C(=O)c2[nH]nc(-c3ccccc3O)c2C1c1cccc(OCc2ccccc2)c1 (configuration not stated) | 0.67 | 0.4
CCc1cc(N2CCN(c3ccccc3F)CC2)n2ncnc2n1 | -2.2 | -0.85
COc1ccc(Cl)cc1S(=O)(=O)NCc1c(C)nn(C)c1C | / | 1
CCOC(=O)c1c(C)c(C(=O)NC(C)COC)c(C)n1CC (configuration not stated) | -1.5 | /
CCOC(=O)c1c(NC(=O)NC)sc2c1CC(C)(C)OC2 | -1.4 | 2.2
COc1ccc(NS(=O)(=O)c2cc(-c3cnc(C4CC4)o3)ccc2C)cc1OC | / | 0.65
COc1ccc(CC2CCC(=O)CC2)cc1 | -0.33 | /
COc1ccccc1CNc1ncnc2onc(-c3cc(F)cc(F)c3)c12 | / | -1.3
CCOC(=O)C1=C(C)NC2=C(C(=O)CC(C)(C)C2)C1c1cccc(Oc2ccccc2)c1 (configuration not stated) | -0.81 | 1.5
COc1ccc(-c2noc(-c3cccc(C)c3)n2)cc1OC | -0.27 | -0.01
CC1=C(C(=O)OCCOc2ccccc2)C(c2ccc(O)cc2)C2=C(CC(C)(C)CC2=O)N1 (configuration not stated) | -0.15 | 1.2
NC(=O)c1c(NC(=O)CCCS(=O)(=O)c2ccccc2)sc2c1CCC2 | / | -0.37
Cc1[nH]c(C)c(S(=O)(=O)N(Cc2ccco2)C2CCCC2)c1C(=O)N1CCCC1 | / | -0.46
O=C(NCC(c1cccs1)S(=O)(=O)c1ccc(Cl)cc1)C1CCCCC1 (configuration not stated) | / | 0.6
Cn1c(C(=O)N2CCCC(C(=O)N3CCN(C(=O)c4ccco4)CC3)C2)cc2sccc21 (configuration not stated) | -0.61 | -0.13
CCCN1C(C(=O)c2ccccc2)=C(OC(=O)c2ccccc2Cl)c2ccccc2S1(=O)=O | -2.4 | 1.5
C=CCN(C(=O)c1noc2c1COc1ccccc1-2)c1ccccc1 | -1.3 | -0.13
OCc1nc2ccccc2n1CC(O)COc1ccc(Cl)cc1 (configuration not stated) | -0.46 | 0.32
CC(=O)N1CCc2cc(S(=O)(=O)N3CCC(CC(=O)NC4CCCCC4)CC3)ccc21 | / | 1.1
CN(C1=NS(=O)(=O)c2ccccc21)c1ccccc1C(=O)O | 0.06 | -1.4
O=C1c2oc3ccc(Cl)cc3c(=O)c2C(c2ccc(O)cc2)N1Cc1ccc2c(c1)OCO2 (configuration not stated) | -0.93 | 0.45
CC(C)(Oc1ccc(Cl)cc1)C(=O)Nc1ncn[nH]1 | -0.12 | -0.81
O=C(CSc1nc(-c2ccco2)nc2cc(=O)[nH]n12)N1CCc2ccccc2C1 | / | 1.5
O=C(c1nnc(-c2ccccc2)o1)N1CCN(C(c2ccccc2)c2ccccc2)CC1 | -2.2 | /
CCN1CCc2nc3sc(C(=O)c4ccc(Cl)cc4)c(N)c3cc2C1 | -5.2 | 2
Cc1cccc(CNc2nc3nc(C)cc(C)n3n2)c1 | -0.94 | -0.79
C=CCNc1nc(C2(C)CC3(CC(C)OC3=O)C(=O)O2)cs1 (configuration not stated) | -0.53 | -0.13
Cc1ccc(C2Nc3ccccc3NC3=C2C(=O)CC(c2ccccc2)C3)cc1 (configuration not stated) | -1.7 | -0.64
COc1cc(C2N(c3ccccn3)C(=O)C3CCCN32)cc(OC)c1OC (configuration not stated) | -0.86 | /
O=C(c1cncc(NS(=O)(=O)c2ccc3c(c2)OCCO3)c1)N1CCOCC1 | / | 0.72
CCOC(=O)c1nc2cc3n(c(C)c-2c1C)C(C)C(CC)=C3C (configuration not stated) | -0.26 | /
COCC(=O)O[C@]1(CCN(C)CCCc2nc3ccccc3[nH]2)CCc2cc(F)ccc2[C@@H]1C(C)C | -1.4 | /
Additional results:
SMILES | CDC25B CDK2 inh | HIV TAR-Tat
O=C(NCC1CCCO1)c1ccc(NC(=O)N2CCSc3ncccc32)cc1 (configuration not stated) | / | -0.7
CC1CCc2c(sc(NC(=O)CCCOc3ccc(Cl)cc3)c2C(N)=O)C1 (configuration not stated) | -7.6 | /
COc1ccc(Nc2ncnc3c2cnn3C)cc1OC | -1.9 | /
COc1ccc(CNc2ncnc3c2c(-c2ccccc2)cn3-c2ccc(OC)cc2)cc1 | -1.9 | /
NCCCCNCCCN | -0.38 | 1.2&1.7
O=C(O)CCSc1nnc2sc3ccccc3n12 | 0.37 | 0.42
CCN(CC)c1ccc(NC(=O)C2=C(C)C(=O)OC23CCCCC3)c(C)c1 | -1.3 | 0.36
O=C1c2cccnc2C(Nc2ccccc2)N1Cc1ccco1 (configuration not stated) | -1.7 | -1
